rRNA inh HTS: inhibitors of bacterial rRNA selective over humanized ribosomes; GFP signal change (wild-type ribosome), % (no concentration beside the values); E. coli WT GFP vs humanized-ribosome RFP mutants, fluorescence, 24 h; stronger effect = lower value; DMSO median 0, no signal -100; 350,000 compounds, 1.6% hits;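 active = significant combined selectivity score with lowered wild-type GFP, culture density cut under 30%, mutant RFP and density less affected; inactive = any of these conditions unmet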; also: one replicate is shown; some compounds called inactive have numbers as strong as hits
LANA-H2A inh: blocks KSHV LANA binding to histone H2A/H2B; Q9QR71; cell-free LANA-H2A/H2B peptide, fluorescence polarization; inhibition, % (no concentration beside the values); 320,000 compounds, 0.6% hits; in the data active = inhibition mostly above about 10%, no sharp cut-off; inactive = mostly below about 6.7%;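 also: stock transfer was 7.5 nL into about 10 µL; 0% = median of vehicle wells and 100% = median of positive control wells; one replicate is shown; the record names a cut of 25% in any replicate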
Target sequence (Q9QR71 whole entry, looked up): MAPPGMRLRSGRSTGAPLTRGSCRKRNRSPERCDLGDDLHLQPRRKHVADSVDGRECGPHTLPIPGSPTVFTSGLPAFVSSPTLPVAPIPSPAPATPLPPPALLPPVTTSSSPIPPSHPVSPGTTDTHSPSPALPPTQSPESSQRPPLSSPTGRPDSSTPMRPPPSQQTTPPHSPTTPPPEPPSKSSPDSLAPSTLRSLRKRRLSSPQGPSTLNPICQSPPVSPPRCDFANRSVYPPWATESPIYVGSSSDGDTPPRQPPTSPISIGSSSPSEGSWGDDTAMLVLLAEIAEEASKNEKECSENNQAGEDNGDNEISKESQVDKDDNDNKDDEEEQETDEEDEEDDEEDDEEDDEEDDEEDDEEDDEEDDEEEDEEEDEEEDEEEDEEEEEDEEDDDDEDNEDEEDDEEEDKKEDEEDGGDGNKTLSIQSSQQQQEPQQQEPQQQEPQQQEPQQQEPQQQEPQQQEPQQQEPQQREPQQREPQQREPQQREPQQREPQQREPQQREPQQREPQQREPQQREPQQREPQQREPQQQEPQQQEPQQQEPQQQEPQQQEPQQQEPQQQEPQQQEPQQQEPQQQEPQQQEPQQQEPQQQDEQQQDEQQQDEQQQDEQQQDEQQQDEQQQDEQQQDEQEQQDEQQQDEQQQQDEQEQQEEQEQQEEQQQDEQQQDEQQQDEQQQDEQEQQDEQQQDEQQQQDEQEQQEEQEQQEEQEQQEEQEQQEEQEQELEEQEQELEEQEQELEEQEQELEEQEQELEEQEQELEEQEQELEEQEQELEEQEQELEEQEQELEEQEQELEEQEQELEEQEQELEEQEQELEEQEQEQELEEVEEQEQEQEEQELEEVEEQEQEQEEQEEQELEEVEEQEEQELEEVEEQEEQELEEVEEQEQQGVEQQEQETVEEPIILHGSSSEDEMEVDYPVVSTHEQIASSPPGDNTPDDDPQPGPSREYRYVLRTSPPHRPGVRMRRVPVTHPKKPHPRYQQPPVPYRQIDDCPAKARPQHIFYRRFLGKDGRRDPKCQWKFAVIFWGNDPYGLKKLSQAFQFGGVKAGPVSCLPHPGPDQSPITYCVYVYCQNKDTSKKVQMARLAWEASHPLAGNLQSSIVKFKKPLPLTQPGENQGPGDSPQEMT
B2AR ag: agonists of human beta-2 adrenergic receptor inducing internalization; Am2.2-beta2AR cells, FAP receptor internalization, flow cytometry; reference of the scale not given here; response, % (no concentration beside the values); 340,000 compounds, 0.43% hits;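 active = response above a set limit, near 3 SD of response in nonfluorescent compounds, cut at about 42% in these data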;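 also: stock transfer was 100 nL into about 11 µL; a reference agonist was the positive control; negative values mostly stem from fluorescent compounds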
Calb FLC: affects C. albicans growth with fluconazole | growth inhibition, % (test concentration not listed) | C. albicans CaCi-2 (fluconazole-resistant clinical isolate) + fluconazole, Alamar Blue growth, 48 h | AID 1979 | 300,000 compounds, 0.57% hits;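 active = most replicates above 75%; inconclusive = exactly half above 75%; inactive = most below 75%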;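 also: all wells also contain fluconazole at 8 µg/ml as a sub-toxic cotreatment; 0% = median of DMSO wells and 100% = median of geldanamycin control wells; wells of about 8 µL received 7.5 nL stock; the first replicate is given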
Beta cell apopt: blocks beta cell apoptosis. INS-1E cytokine-induced death, ATP luminescence, 48 h; percent of positive-control rescue, neutral wells zero. AID 435005. protection from apoptosis, % (concentration not given with the values). 300,000 compounds, 0.8% hits;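 active = all replicates at 75% or more, or half of them and the mean; inconclusive = half reach 75% but not the mean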;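 also: 0% = cytokine-treated negative control wells and 100% = positive control rescue; higher means more ATP so stronger rescue from cytokine killing; wells of about 40 µL received 100 nL stock; the first replicate is given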
T cruzi repl: T. cruzi replication inhibition. T. cruzi beta-gal in NIH3T3, luminescence, 90 h. inhibition, % (concentration not given with the values). 300,000 compounds, 1.4% hits. AID 1885;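 active = mean inhibition across valid replicates above about 55%, limit read from the data; inconclusive = mean below that limit but half or more replicates reach it; inactive = mean below it, under half of replicates reach it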;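 also: signal also drops with host cell toxicity which is not excluded here; 0% = plate median of DMSO wells and 100% = zero luminescence signal; higher percent means less beta-gal luminescence so fewer parasites; stock transfer was 50 nL into about 50 µL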
A1 inh: inhibitors of the anti-apoptotic protein A1, read as caspase activation. MEF A1-2A-BIM cells, Caspase-Glo 3/7 luminescence, 3 h; percent of clofoctol response, vehicle zero. caspase activation, % (concentration not given with the values). 330,000 compounds, 0.066% hits. AID 2462;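 active = over half of replicate activation scores above 10%, or exactly half above 10 with the replicate mean above 10; inconclusive = replicate mean below 10 yet half the replicates above 10; inactive = over half of replicates below 10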;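 also: wells of about 30 µL received 50 nL stock; many hits fall short of the cut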
ALR inh: human ALR oxidase inhibition via reduced H2O2. P55789. purified ALR, DTT oxidation, H2O2 HRP-luminol luminescence. 290,000 compounds, 3.8% hits. inhibition, % (test concentration not listed);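 active = mean and each replicate at 75% or more; inconclusive = only one of the two met; inactive = neither met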;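 also: stock transfer was 7.5 nL into about 7.5 µL; 0% = neutral wells and 100% = wells with inactivated enzyme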
rRNA inh HTS OD600: recorded beside rRNA inh HTS, whose call it bears; OD600 change, %; measured here: OD600 growth;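 optical density of the mix in the first replicate; 0 = DMSO median and -100 = no signal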
rRNA inh HTS RFP: recorded beside rRNA inh HTS, whose call it bears; RFP signal change, %; measured here: RFP humanized mutant strains;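 first replicate; 0 = DMSO median and -100 = no signal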
* marks the source's active call; other numbers are inactive results; u = inconclusive; x = no result given; & = joins results of further samples. Only part of the results is shown, so the mix of outcomes need not match the whole.

Screens in order – rRNA inh HTS	rRNA inh HTS OD600	rRNA inh HTS RFP	LANA-H2A inh	B2AR ag	Calb FLC	Beta cell apopt	T cruzi repl	A1 inh	ALR inh
CN(C)C(=O)c1ccc(NC(=O)c2cc(-n3cnnc3)ccc2Cl)cc1
    -7	-4	0.1	8.6	1	-4	-1	-7	-0.5	-11
Cc1ccc(OCCC(=O)OCC(=O)Nc2cc(S(=O)(=O)N(C)C)ccc2C)cc1
    -5	1	3.5	5.7	-23	-4	-1	-19	1.7	-2
O=C(O)C1=C(C(=O)Nc2cccc(C(F)(F)F)c2)CCCC1
    14	14	-1.7	-0.9	4	-10	-8	-11	0.3	-6
O=C(NCc1cccnc1)c1ccc(NC(=O)c2ccc(Br)cc2)cc1
    1	9	-3.2	3.2	4	-9	140*	-51	-0.4	-6
Cc1ccc(NC2=C(NC(=O)c3ccccc3)C(=O)c3ccccc3C2=O)cc1Cl
    x	x	x	-2.1	9	9	59	-1	0.1	-20
COCCCNC(=O)Cn1c(=O)n(Cc2ccccc2Cl)c(=O)c2cc(OC)c(OC)cc21
    6	2	-5.0	3.1	3	4	0	5	-1.1	-9
CCCN(CC(=O)Nc1ccccc1OC)C(=O)CCC(=O)c1ccc(Cl)s1
    -16	-10	11	2.4	8	x	5	x	2.1	6
Cc1cc(Br)ccc1NC(=O)CNC(=O)CSc1ncccn1
    x	x	x	-1.7	1	x	-2	x	-0.2	2
NC(=O)CC1(CC(=O)O)CCCCC1
    x	x	x	-1.7	1	-9	-1	-13	1.3	-22
Cc1cc(C(=O)N/N=C/c2cccn2C)no1
    2	18	0.5	4.8	9	u	0	2	0.5	13
CCN(CC)S(=O)(=O)c1ccc(NC(=O)c2cc(-c3ccccc3)nc3ccccc23)cc1
    -1	4	-4.0	-4.2	4	0	6	25	0.8	0
CCCCn1c(N)c(N(CCOC)C(=O)CCc2ccc(OC)cc2)c(=O)[nH]c1=O
    x	x	x	-4.2	0	-17	-5	-1	-2.9	x
COCCN(C(=S)Nc1cccc(C)c1)C(C)c1cccs1 (stereo unspecified)
    -19	-22	-12	1.0	1	7	3	-17	0.0	-1
Cc1ccccc1-n1c(C)nc2ccccc21
    x	x	x	-1.5	-1	-8	0	6	-0.3	x
O=C(O)c1ccccc1OCc1nc2ccccc2s1
    -8	-3	8.5	1.9	8	2	6	-2	-6.0	-2
CC(C)C(NS(=O)(=O)c1cccs1)C(=O)N(C)Cc1ccccc1 (stereo unspecified)
    x	x	x	-2.2	2	-14	-7	-9	0.6	-5
Cn1c2c(c(=O)n(C)c1=O)C(NC(=O)c1ccco1)(C(F)(F)F)C(=O)N2 (stereo unspecified)
    x	x	x	0.4	6	-4	-2	-14	1.4	-2
COc1cc(CN2CCC(C(=O)NC3CCCC3)CC2)cc(OC)c1O
    x	x	x	-3.2	-8	u	1	-21	0.0	-45
COc1cccc(NC(=O)C2CC(=O)n3cnnc3S2)c1 (stereo unspecified)
    x	x	x	-1.7	3	x	-2	x	0.1	5
CCc1ccccc1NC(=O)C1CCCN1C(=O)Nc1ccc(C)cc1 (stereo unspecified)
    3	3	-0.9	-1.4	6	5	3	-11	1.2	-5
CCOC(=O)C1CCCN(c2nc(C)nc3c2oc2ccccc23)C1 (stereo unspecified)
    x	x	x	-5.8	3	-5	-2	0	-0.3	0
COc1ccc(C2=Nn3c(nnc3-c3ccccn3)SC2)cc1OC
    x	x	x	5.2	5	-3	3	-22	-0.1	-14
O=C(CCC1CCCCC1)NCc1ccccn1
    6	1	-1.9	-1.7	-3	-1	-11	-18	0.9	-3
COc1ccc(O[C@H]2C=C[C@@H](c3ccccc3)O[C@@H]2COC(=O)CC/C(C)=N/O[C@H](C)c2cn([C@@H]3COC[C@H]3O)nn2)cc1
    x	x	x	0.9	x	3	-20	-10	-1.9	-7
Cc1cccc(C(=O)N[C@H](C(=O)Nc2nc3ccccc3[nH]2)C(C)C)c1
    21	14	1.9	-7.6	26	8	26	12	2.4	-4
CC(C)CNS(=O)(=O)c1ccc(CCC(=O)Nc2cc(Cl)ccc2Oc2ccccc2)cc1
    x	x	x	-3.0	-3	7	18	9	-0.7	-3
COC(=O)[C@]1(Cc2ccccc2)N[C@H](c2ccc(-c3ccc(Cl)c(Cl)c3)cc2)[C@@H]2C(=O)N(C)C(=O)[C@@H]21
    5	2	-1.2	4.0	-2	3	1	27	0.8	0
O=C(NCc1ccco1)c1cnn2cccnc12
    13	-1	-4.9	0.7	6	-9	-1	6	0.9	16
O=C(c1cccc(Cl)c1)N1CCN(C2CCCCC2)CC1
    7	9	0.3	2.4	-9	-1	-6	1	0.3	0
N#Cc1c(F)cccc1NCCCn1ccnc1
    14	14	2.4	1.2	2	-4	-6	10	0.1	x
COc1c2c(cc3oc(=O)c4c5ccc(O)cc5oc4c13)OC(C)(C)CC2
    x	x	x	6.0	6	-7	7	31	0.0	27
COc1ccc(OCC(=O)Nc2nc3cc4c(cc3s2)OCCO4)cc1
    4	5	2.0	-0.3	11	x	-6	x	-0.7	-3
O=C(N/N=C/c1ccc(Br)cc1)c1cc[n+](Cc2ccccc2)cc1
    5	9	9.1	-0.7	-1	-4	0	-5	-0.5	-7
CSc1ncccc1C(=O)OCC(=O)c1ccc2c(c1)NC(=O)CO2
    6	8	8.5	4.6	5	-1	-12	-15	-0.7	x
O=C(CSc1nc2ccccc2c(=O)[nH]1)Nc1ccc(S(=O)(=O)N2CCCC2)cc1
    x	x	x	2.9	-2	-3	5	2	1.0	50
O=S(=O)(N/N=C\c1cccnc1)c1ccccc1
    2	10	-3.2	-2.0	-7	-8	5	-13	0.3	0
O=S(=O)(c1ccccc1)c1cnc(-c2ccccc2)nc1N1CCCCC1
    4	-12	-1.7	-0.3	3	12	-6	20	-1.1	-3
COc1ccc(C(CNC(=O)c2cccc(S(=O)(=O)N3CCc4ccccc43)c2)N(C)C)cc1 (stereo unspecified)
    2	7	-2.5	1.3	4	x	-3	x	-0.8	-2
Cc1ccc(S(=O)(=O)NCC(c2ccco2)N2CCc3ccccc3C2)cc1 (stereo unspecified)
    -29	-40	-6.0	6.1	7	13	2	17	0.5	-4
O=[N+]([O-])c1cc(C(F)(F)F)ccc1SCC(O)CO (stereo unspecified)
    1	2	-0.2	0.7	-4	-6	-6	-12	0.2	-6
N#CC1(c2ccccc2)CCCN1C(=O)c1ccco1 (stereo unspecified)
    x	x	x	4.3	-2	-2	-3	0	1.4	-13
CC(=O)c1cccc(N(C(=O)Cn2nnc3ccccc32)C(C(=O)NC2CCCCC2)c2cn(C)nc2C)c1 (stereo unspecified)
    -1	2	-5.4	-3.9	10	u	0	4	0.8	-5
Cc1nnc2ccc(N3CCC4(CC3)OCCO4)nn12
    x	x	x	4.4	13	2	-2	-11	1.3	-25
COc1ccc(C(=O)N(C)c2ccccc2C(=O)NCCc2ccccc2)cc1
    1	6	0.4	4.3	-4	-5	89*	-49	1.0	-1
C/C(=C(\C#N)C(=O)NCc1ccccc1)N(C)C
    x	x	x	2.9	4	-9	-7	-13	0.2	2
Cc1c(C)c2c(OCC(=O)N[C@@H](Cc3ccccc3)C(=O)O)cc3c(c2oc1=O)CCC(C)(C)O3
    x	x	x	10	-23	-6	-9	-13	0.0	59
CN1CCCN(C(=O)CNC(=O)c2ccccc2Br)CC1
    28	15	0.6	-2.8	1	x	1	x	0.2	-2
CC(C)N=C(NS(=O)(=O)c1ccccc1)C(Cl)(Cl)Cl
    -5	8	9.2	-5.6	13	-36	14	13	-0.4	9
O=C1CC(c2ccccc2)=Nc2ccc(Br)cc2N1
    15	13	-1.0	0.6	-5	-12	-6	-6	0.2	-30
O=c1c2cc3c(=O)n(CC4CCCO4)c(=O)c3cc2c(=O)n1CC1CCCO1 (stereo unspecified)
    8	11	-2.5	-5.7	-7	-1	-5	-1	0.2	-4
N=C1C(c2nc3ccccc3[nH]2)=C(O)CN1c1ccccc1
    x	x	x	-6.2	-7	-7	7	-28	0.3	-4
COc1ccc(Nc2nc(NC(C)(C)C)nc(N3CCCC3)n2)c(OC)c1
    x	x	x	1.0	-12	0	47	46	0.1	1
Cc1ccccc1/C=N\NC(=O)c1ccc(Cn2cccn2)o1
    x	x	x	0.5	1	6	-1	-15	-0.1	-6
CC(OC(=O)C1=COCCO1)C(=O)NC1(C#N)CCCCC1 (stereo unspecified)
    -27	-42	2.3	2.8	4	x	-8	x	1.2	-15
Cc1ccc(S(=O)(=O)N2CCN(c3c([N+](=O)[O-])cc(C(F)(F)F)cc3[N+](=O)[O-])CC2)cc1
    2	-3	-3.0	-1.1	-23	-5	7	45	0.1	x
C[C@H](CO)N1C[C@H](C)[C@@H](CN(C)C(=O)NC2CCCCC2)Oc2ccc(NS(=O)(=O)c3cccs3)cc2C1=O
    0&4	2&11	-0.6&0.0	0.0	-2	x	-12	x	0.6	x
CCS(=O)(=O)C1=NN2C(=N)/C(=C\c3ccc(OS(=O)(=O)c4ccccc4)c(OC)c3)C(=O)N=C2S1
    x	x	x	10	x	0	-7	-14	0.6	u
CC(=O)c1cccc(NC(=O)C2COc3ccccc3O2)c1 (stereo unspecified)
    2	-2	0.5	2.6	3	4	-5	-4	0.6	-5
CC(=O)Nc1ccc(Oc2nc(C)cc(C)n2)cc1
    x	x	x	-0.8	3	-2	-2	-20	1.0	-5
O=C(CSCc1ccc(F)cc1)N1CCOCC1
    x	x	x	-1.4	9	1	-17	-6	-0.1	-6

Additional records.
Screens in order – rRNA inh HTS	rRNA inh HTS OD600	rRNA inh HTS RFP	LANA-H2A inh	B2AR ag	Calb FLC	Beta cell apopt	T cruzi repl	A1 inh	ALR inh
Cc1noc(C)c1COC(=O)c1ccc(N(C)C)cc1
    6	12	2.6	-3.3	2	-4	-4	6	0.1	-11
CC(C)(C)OC(=O)C[C@H]1C/C=C\C[C@@H](CC(=O)N(CCO)Cc2ccccc2)C(=O)NCCOC1=O
    2	9	18	-2.8	-3	x	1	x	-0.6	-1
CC(=O)Nc1ccc(C2=NN(c3ccccc3)C(c3cccs3)C2)cc1 (stereo unspecified)
    -36	-61	9.0	-9.7	2	-1	-5	17	-0.3	-11
Cc1[nH]c2ccccc2c(=O)c1C(=O)/C=C/c1ccccc1
    7	6	24	-2.7	3	6	25	48	0.6	26
CCCCCC(=O)N/N=C(\C)c1ccccn1
    x	x	x	-3.0	9	-16	37	-3	0.8	-8
CCC(C)(C)NC(=O)C(c1ccc(OC)cc1)N(C(=O)CCC(=O)Nc1cc(C)on1)c1ccc(OC)c(OC)c1 (stereo unspecified)
    3	-1	1.1	6.9	0	2	-2	-11	-0.2	-7
CCOC(=O)C1=C(OCc2ccc(Cl)cc2)C2C=C(C)C=CC2N=C1 (stereo unspecified)
    x	x	x	0.2	-1	16	0	3	-0.7	-1
